CHT allo act = CHT positive allosteric modulators, primary screen, cell-based, membrane potential dye, choline EC20. High affinity choline transporter 1 (Homo sapiens), Q9GZV3. CHT-expressing cells; stronger effect = higher value; LV-AA mutant CHT in HEK293 cells. B-score at 10 µM. 0.49% of 310,000 active;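 active means initial fluorescence not abnormally high and integrated response B-score, plate-corrected, over 3 SD above library mean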
Target sequence (Q9GZV3 whole entry, looked up): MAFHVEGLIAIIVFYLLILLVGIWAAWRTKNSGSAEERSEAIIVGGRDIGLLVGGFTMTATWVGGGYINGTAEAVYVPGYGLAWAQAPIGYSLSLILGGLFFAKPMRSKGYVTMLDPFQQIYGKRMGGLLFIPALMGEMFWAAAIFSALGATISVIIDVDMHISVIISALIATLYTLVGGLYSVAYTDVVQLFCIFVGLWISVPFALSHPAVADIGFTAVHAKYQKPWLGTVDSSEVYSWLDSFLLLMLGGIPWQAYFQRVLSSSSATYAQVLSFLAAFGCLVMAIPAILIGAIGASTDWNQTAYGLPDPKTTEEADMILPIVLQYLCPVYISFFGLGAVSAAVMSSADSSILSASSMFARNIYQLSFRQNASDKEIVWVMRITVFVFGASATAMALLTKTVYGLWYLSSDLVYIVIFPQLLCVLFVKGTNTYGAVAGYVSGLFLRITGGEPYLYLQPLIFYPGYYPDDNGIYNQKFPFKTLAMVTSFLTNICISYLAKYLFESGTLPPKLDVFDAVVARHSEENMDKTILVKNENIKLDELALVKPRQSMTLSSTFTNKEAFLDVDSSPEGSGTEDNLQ
Calls only; i = inactive. This is a subset, and most or all hits are left out here.

item	Molecule	CHT allo act
1	O=C(NN1C(=O)c2ccccc2NC1c1cccnc1)c1ccc([N+](=O)[O-])cc1 (centres undefined)	i
2	Cc1ccc(N2C(=O)Nc3cc(Cl)c(Cl)cc3N2O)cc1Cl	i
3	CCCn1c(O)c(C=Nc2ccccc2)sc1=S	i
4	Cc1ccc(C(C)C)c(OCC(=O)NNC(=O)CC2OC(=O)c3ccccc32)c1 (centres undefined)	i
5	COCCN1CCN(C(=O)c2cc(COc3ccc(Cl)cc3OC)on2)CC1	i
6	CCC(C)NC(=O)C1CCC(CNS(=O)(=O)c2ccc3c(c2)CC(C)N3C(=O)C2CC2)CC1 (centres undefined)	i
7	Cc1nnc(N(CCC#N)CCC#N)s1	i
8	CN(c1cccc(NC(=O)CCSc2ccccc2)c1)S(C)(=O)=O	i
9	Nc1nc2ccc(Cc3ccncc3)cc2s1	i
10	Cc1cc(=O)oc2cc(OCC(=O)OCc3nnc(-c4ccccc4)o3)ccc12	i
11	COc1ccc(CCNC(=O)CSc2ccc(Br)cc2)cc1OC	i
12	COc1cc(C(=O)Nc2ccc(NC(=O)C(C)C)nc2)cc(OC)c1OC	i
13	CS(=O)(=O)NCCCCNc1ccc(C(F)(F)F)cc1[N+](=O)[O-]	i
14	CC1(C2(O)CC(c3ccccc3)ON2)CCCCC1 (centres undefined)	i
15	CCOC(=O)c1sc2nc(C)cc(C)c2c1NC(=O)c1ccco1	i
16	Cc1n[nH]c(=O)c2c(NC(=O)COC(=O)c3cccc(OC(F)F)c3)oc(C)c12	i
17	COc1ccccc1C1OC(c2cccc([N+](=O)[O-])c2)=NN1C(C)=O (centres undefined)	i
18	O=C(O)c1ccn2c(C(=O)c3ccc(Cl)cc3)c(-c3ccccc3)cc2c1	i
19	Cc1c(CN2CCCC(C(=O)Nc3cccc(-n4cccn4)c3)C2)cnn1C (centres undefined)	i
20	Cc1cc(C)c2c(N=CN(C)C)c(C(=O)N3CCN(c4ncccn4)CC3)sc2n1	i
21	CN(C)c1ccc(C2NCC(CCl)O2)cc1 (centres undefined)	i
22	CCN(CC)S(=O)(=O)c1ccc(Nc2nc3ccccc3n3nnnc23)cc1	i
23	CC(C)Oc1ccc(S(=O)(=O)N2CCOCC2)cc1NC(=O)Cc1cccs1	i
24	Cc1nc(-c2ccccn2)nc(SCC(=O)c2ccccc2)c1Cl	i
25	O=C(CCCOc1ccc(Cl)cc1)N1CCCCCC1	i
26	CCN(CC)S(=O)(=O)c1cccc2cccnc12	i
27	O=C(Oc1ccc2ccc(=O)oc2c1)C1CCCCC1	i
28	Cn1nc(C(=O)NNC(=O)c2ccc(Cl)cc2)ccc1=O	i
29	CS(=O)(=O)N1CCCC(C(=O)NCc2ccc(F)cc2Cl)C1 (centres undefined)	i
30	O=C(O)c1nc(-c2ccccc2)n(-c2cccc(C(F)(F)F)c2)n1	i

In another format: entries from further up
#4 Cc1ccc(C(C)C)c(OCC(=O)NNC(=O)CC2OC(=O)c3ccccc32)c1 (centres undefined)
  CHT allo act: i
#5 COCCN1CCN(C(=O)c2cc(COc3ccc(Cl)cc3OC)on2)CC1
  CHT allo act: i

(continued)
item	Molecule	CHT allo act
31	Cn1c(CCNS(=O)(=O)c2ccc(F)cc2)nnc1SCc1cccnc1	i
32	Cc1ccccc1/C=N/Nc1ncnc2nc[nH]c12	i
33	Cc1cc(C)n(-c2ccc(NC(=O)C3CCCCN3C(=O)c3cc(C)oc3C)cc2)n1 (centres undefined)	i
34	COc1ccc(Cn2c(C3CC3)nc3ccc(NC(=O)c4ccco4)cc3c2=O)cc1	i
35	O=C(CCc1nnc(C2(c3ccc(Cl)cc3)CCC2)o1)N1CCCC1	i
36	COCCN=C1NC(=O)C(CC(=O)Nc2cccc(Cl)c2C)S1 (centres undefined)	i
37	COC(=O)c1cccc(NC(=O)Nc2ccccc2OC)c1	i
38	N#Cc1ccc(COC(=O)CSc2nnc(N)s2)cc1	i
39	COc1cc(NC(=O)c2ccc(-c3cccc([N+](=O)[O-])c3)o2)ccc1NC(=O)C(C)C	i
40	CN(Cc1ccco1)C(=O)Cn1c(=O)oc2cc(S(=O)(=O)NCc3ccccc3)ccc21	i
41	O=C(CCCN1C(=O)CCC1=O)Nc1ccc(Br)cc1F	i
42	Cc1ccc(OCC(=O)NCC2CCCO2)c(C)c1 (centres undefined)	i
43	CC(C)(C)NS(=O)(=O)c1cc(C(=O)O)ccc1Cl	i
44	COC(=O)c1ccc(-c2ncc(-c3cccc4ccccc34)o2)cc1	i
45	CCC(=O)N1CCc2cc(S(=O)(=O)NCCN3CCCCC3CC)ccc21 (centres undefined)	i
46	Cc1nn(C(=O)c2c(-c3ccccc3)noc2C)c(C)c1N=Nc1cc(C(F)(F)F)cc(C(F)(F)F)c1	i
47	CC1=C(C(=O)Nc2ccccc2C)C(c2ccc(C)o2)NC(=S)N1 (centres undefined)	i
48	CCNc1nc(NCC)n2c(SCC(=O)Nc3ccccc3[N+](=O)[O-])nnc2n1	i
49	C=CCn1c(-c2ccc3[nH]c(C)c(C)c3c2)n[nH]c1=S	i
50	COc1ccc(NCc2ccccc2[N+](=O)[O-])cc1OC	i
51	CCOC(=O)N1CCN(Cc2nc3c(c(=O)n(C)c(=O)n3C)n2CCC(C)C)CC1	i
52	CC(C)[C@H](NS(=O)(=O)c1ccc2c(c1)OCCO2)C(=O)OCC(=O)Nc1cccc(Cl)c1Cl	i
53	Cc1ccc2nc(-c3cccc(N)c3)[nH]c2c1	i
54	Cc1ccccc1CCN(C(=O)Cn1nnc2ccccc21)C(C(=O)NCC1CCCO1)c1nc2ccccc2n1C (centres undefined)	i
55	Cc1nc(SCC(=O)NCc2ccco2)nc(C)c1C	i
56	O=C(c1ccccc1Cl)N1CCN(S(=O)(=O)c2cccs2)CC1	i
57	COC(=O)Cn1c(=NC(=O)c2cc(OC)c(OC)c(OC)c2)sc2cc(OC)ccc21	i
58	COCCCNC(=S)N1CCN(c2ccc([N+](=O)[O-])cc2)CC1	i
59	COc1ccc(CN2C(=NC(=O)C3CCCCC3)SC3CS(=O)(=O)CC32)cc1 (centres undefined)	i
60	CCN(C(=O)c1c(-c2ccccc2Cl)noc1C)C1CCCCC1	i
61	COc1ccc(C2CC(=O)C=C(NCCC(C)C)C2)cc1 (centres undefined)	i
62	Nc1nnc(SCc2ccc(F)cc2)s1	i
63	Cc1ccc(Nc2c([N+](=O)[O-])ccc3c2=NC2(CCCCC2)N=3)cc1	i
64	COc1cccc(N2CN(C3CCCCC3)CNC2=S)c1	i
65	COc1ccc(NC(=O)c2ccco2)cc1NC(=O)c1cccc(OC(C)C)c1	i
66	O=C(c1ccncc1)N(c1ccc2oc3c(c2c1)CCCC3)S(=O)(=O)c1cccc([N+](=O)[O-])c1	i
67	Cc1ccccc1N1C(=O)C(Cl)=C(N2CCN(c3ccccc3)CC2)C1=O	i
68	O=C(CSc1nc2ccccc2nc1N1CCOCC1)N1CCN(c2ccccc2)CC1	i
69	O=S(=O)(c1ccc(Cl)cc1)n1c(Cc2ccccc2)nc2ccccc21	i
70	O=C(Cn1ncn2c(cc3ccccc32)c1=O)NCCCc1ccccc1	i
71	O=C(Nc1ccc(Cl)cc1)Nc1nnc(CSCc2ccccc2Cl)s1	i
72	Cn1cccc1Cc1nnc(SCC(=O)NCC2CCCO2)n1C (centres undefined)	i
73	C[C@H](NC(=O)c1nc[nH]c1C(=O)NC(c1ccccc1)c1ccccc1)C(=O)OC(C)(C)C	i
74	CC(=O)Nc1ccc(S(=O)(=O)N(Cc2cc3ccc(C)cc3[nH]c2=O)CC2CCCO2)cc1 (centres undefined)	i
75	COc1ccc(NC(=O)C/C(C)=N/NC(=O)C(=O)NC2CCCCC2)c(OC)c1	i
76	Cc1cccc2cc(C#N)c(N3CCC(O)CC3)nc12	i
77	O=C(CSc1nc2ccccc2nc1N1CCOCC1)Nc1ccccc1F	i
78	COc1ccc(C2Nc3ccccc3C(=O)N2c2ccccc2)cc1CSc1ccccn1 (centres undefined)	i
79	COC(=O)c1ccccc1NC(=S)NC(=O)c1ccc2ccccc2c1	i
80	Cc1nc(NCc2ccco2)c2oc3ccccc3c2n1	i
81	CCC1CCCCN1C(=O)COc1ccc(N(C)S(=O)(=O)c2ccc(C)cc2)cc1 (centres undefined)	i
82	N/C(=N\OC(=O)c1ccc2c(c1)OCO2)c1ccc(Cl)cc1	i
83	COc1cccc([C@@H]2Oc3ccc(OC)cc3C(=O)[C@H]2O)c1	i
84	COc1ccccc1CNC(=O)c1csc2c1CCCC2	i
85	CCN(C)c1ccc(/C=N\n2nnnc2N)cc1	i
86	O=C(NCC1CCCO1)c1cc2ccccc2oc1=O (centres undefined)	i
87	COc1ccc(/C=C2/NC(=O)N(CC(=O)Nc3cccc(C)c3)C2=O)cc1O	i
88	COCCN(C(=O)COC(=O)c1cc2c(s1)CCC2)c1c(N)n(Cc2ccccc2)c(=O)[nH]c1=O	i
89	CCC1CCCCN1c1nc2c(C=O)c(C)nn2c2ccccc12 (centres undefined)	i
90	Cc1ccc(S(=O)(=O)N2CCCN(S(=O)(=O)c3ccc(C)cc3)CC2)cc1	i

6 compounds from above, sorted by length of the SMILES, low to high:
item	Molecule	CHT allo act
84	COc1ccccc1CNC(=O)c1csc2c1CCCC2	i
80	Cc1nc(NCc2ccco2)c2oc3ccccc3c2n1	i
61	COc1ccc(C2CC(=O)C=C(NCCC(C)C)C2)cc1 (centres undefined)	i
79	COC(=O)c1ccccc1NC(=S)NC(=O)c1ccc2ccccc2c1	i
67	Cc1ccccc1N1C(=O)C(Cl)=C(N2CCN(c3ccccc3)CC2)C1=O	i
75	COc1ccc(NC(=O)C/C(C)=N/NC(=O)C(=O)NC2CCCCC2)c(OC)c1	i

(continued)
item	Molecule	CHT allo act
91	Cc1cc(C)n(-c2ccc(F)cc2)c(=O)c1C#N	i
92	Cc1cc(S(=O)(=O)NCc2ccco2)c(C)cc1Cl	i
93	CCOc1cc(CNc2ccc(N3CCCC3)cc2)cc(Cl)c1OC	i
94	COCCn1c(C)cc(C(=O)CSc2nnc(C)s2)c1C	i
95	O=C(c1ccccc1)c1nn(-c2ccc(Cl)cc2)cc1C(=O)c1cc2ccccc2oc1=O	i
96	O=C(O)C1=C[C@@H](c2coc3ccccc3c2=O)C[C@@H](OCc2ccc(CO)cc2)O1	i
97	CC(=O)c1cccc(NS(C)(=O)=O)c1	i
98	CCN1C(=O)CC(NCc2ccc(S(N)(=O)=O)cc2)C1=O (centres undefined)	i
99	CCOCCCNC(=S)N1CCCC(c2nc3ccc(C)cc3[nH]2)C1 (centres undefined)	i
100	COc1ccccc1NC(=O)Nc1ccccc1C(N)=O	i
101	COc1ccccc1C(=O)NCCCNc1ccc([N+](=O)[O-])cc1	i
102	COc1ccc(CCN(C)C(=O)CCCN2C(=O)c3cccc4cccc(c34)C2=O)cc1OC	i
103	O=C(CSc1ncnc2c1nnn2-c1ccc(F)cc1)NCC1CCCO1 (centres undefined)	i
104	COc1ccc(-c2nc(-c3cccs3)no2)cc1	i
105	O=C(c1ccc(S(=O)(=O)N2CCCC2)cc1)N1CCCCCC1	i
106	CCOc1ccc2nc(N/C(N)=N/C(=S)Nc3ccc(OC)cc3)nc(C)c2c1	i
107	CCc1ccc(-c2nn(Cc3ccccc3)cc2/C=C/C(=O)O)cc1	i
108	O=C(c1nnc(-c2ccncc2)o1)c1ccccc1Cl	i
109	COc1ccc(NC(=O)c2cccc(N3C(=O)C4C5C=CC(C5)C4C3=O)c2)cc1 (centres undefined)	i
110	CC(=O)c1ccc(NC(=O)CCc2nc3sc4c(c3c(=O)[nH]2)CCCC4)cc1	i
111	Cc1ccc(-n2ncc3c2CC(C)(C)CC3NC(=O)C2CCOCC2)cc1 (centres undefined)	i
112	O=C(CSc1n[nH]c(-c2ccncc2)n1)Nc1ccccn1	i
113	Cc1cc2c(cc(C(=O)NCCCN3CCOCC3)n2Cc2ccc(Cl)cc2)o1	i
114	Cc1oc(CC(C)C)cc1C(=O)Nc1cccc2ccccc12	i
115	COc1ccc(N2CCN(S(=O)(=O)c3ccc4c(c3)N(C(C)=O)CCO4)CC2)cc1	i
116	CC(C)(C)NC(=O)COC(=O)Cc1ccc(Cl)cc1	i
117	Cc1cc(NC(=O)c2cc(F)c(F)cc2Cl)no1	i
118	Cc1ccc(S(=O)(=O)CCC(=O)OCc2ccc(Cl)c(Cl)c2)cc1	i
119	CCOC(=O)c1ccc(N2C(=O)C(O)=C(C(C)=O)C2c2ccc(O)c(OC)c2)cc1 (centres undefined)	i
120	Cc1cnc(NC(=O)CSc2c(Cl)cccc2Cl)s1	i
121	Cc1ccc(-c2nnn(CC(=O)N(Cc3ccc(F)cc3)C(C(=O)NC3CCCC3)c3ccncc3)n2)o1 (centres undefined)	i
122	Cc1nc(C)n(CC(=O)N2CCCC(C(=O)c3ccc(Cl)cc3C)C2)n1 (centres undefined)	i
123	CCN(CC(=O)Nc1ccc(NC(C)=O)cc1)C(=O)c1cc(C)on1	i
124	CCCNC(=O)C(=O)NCCC1=CCCCC1	i
125	CC(=O)c1sc(-c2ccccc2Cl)nc1C	i
126	CCN(CC(=O)Nc1ccccc1OC)C(=O)c1cccc(-n2cccc2)c1	i
127	Cc1ccc(C(=O)NCCCc2ccccc2)c(Cl)c1	i
128	COc1cc(/C=C/C(=O)Nc2ccccc2C(F)(F)F)cc(OC)c1OC	i
129	NC(=O)c1ccc(NC(=O)COC(=O)c2cc(S(=O)(=O)N3CCOCC3)ccc2N2CCCCC2)cc1	i
130	COc1cccc(N2CC(C(=O)Nc3nnc(SCC(=O)NC4CCCC4)s3)CC2=O)c1 (centres undefined)	i
131	O=C(O)Cc1csc(-c2ccc(F)cc2)n1	i
132	CCCNC(=O)N1C2=NC(C(=O)OC)=C(C(=O)OC)[C@@H]3N(Cc4ccccc4)c4ccccc4[C@]23C[C@H]1CO	i
133	O=c1cc[nH]c2c(C(F)(F)F)cccc12	i
134	Cc1ccc(-n2c(Cc3cccs3)nnc2SCC(N)=O)cc1	i
135	CCCNC(=S)N1CCC(C(=O)c2ccc(F)cc2)CC1	i
136	Cc1c(N2C(=O)CSC2c2ccc([N+](=O)[O-])cc2)c(=O)n(-c2ccccc2)n1C (centres undefined)	i

Compound activity from PubChem.
